Autofluor counter – counter-screen for toxin protease inhibitors: compound fluorescence | compound autofluorescence counterscreen, microsphere flow cytometry; hits give high values | fluorescence intensity (test concentration not listed) | actives 3.1% (n = 360,000);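 active = at least 3 SD above the mean of all compounds, about 16000 in these data; inconclusive = too few beads counted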;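 also: 100 nL of 1 mM stock went into each well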
PrP UTR inh – suppresses PrP 5' UTR mRNA reporter expression; cell-based PrP 5' UTR mRNA reporter, plate reader; inhibition, % (test concentration not listed); actives 0.35% (n = 340,000); AID 488862;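 active = every replicate at 50% or more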;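 also: 0 = median of the neutral control wells; tested in H4 reporter cells; numbers are from one replicate; inactives centre near -14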
BJeLR lethal – kills HRASV12-expressing BJeLR cells; BJeLR (HRASV12) viability, CellTiter-Glo ATP luminescence, 48 h; reference of the scale not given here; inhibition, % (test concentration not listed); actives 0.17% (n = 300,000); AID 1554;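 active = replicate mean above 50%; inconclusive = above 50% but judged a plate artefact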;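 also: 50 nL library stock added to about 25 µL; numbers are from one replicate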
Sa ugtP lethal – growth inhibition of S. aureus ugtP deletion strain | S. aureus RN4220 ugtP deletion, OD600 growth, 16 h; some inactives read as strong as hits | growth inhibition, % (test concentration not listed) | actives 0.54% (n = 330,000) | AID 1259309;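 active = z-score under -3 and OD600 up to 0.15 on both plates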;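 also: plate controls were untreated wells for no effect and antibiotic for full effect; wells of about 80 µL received 100 nL stock; the first replicate is given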
Sa RN4220 lethal – kills Staphylococcus aureus RN4220 | S. aureus RN4220 growth, OD600, 16 h | actives 0.33% (n = 330,000) | AID 1259311 | inhibition, % (no concentration beside the values);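 active = z-score of -3 or lower and OD600 up to 0.18 on both plates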;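 also: plate controls were untreated cells for no effect and reference antibiotic for full effect; stock transfer was 100 nL into about 80 µL; one replicate is shown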
Mtb hypoxia inh – Mtb hypoxia fluorescent reporter inhibition | M. tuberculosis hypoxia-regulated fluorescent reporter, fluorescence | fluorescence inhibition, % (no concentration beside the values) | actives 0.1% (n = 300,000) | AID 1159583;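 active = 35 to 45% if threefold the growth effect, above 45% if 1.5-fold the growth effect; inactive = the rest, general growth blockers included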;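 also: wells of about 50 µL received 100 nL stock; 0% = vehicle wells and 100% = reference inhibitor wells; whole bacteria with a GFP reporter of the hypoxia response; strong numbers were not always called active; many hits fall short of the cut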
Mtb hypoxia inh growth – also measured in Mtb hypoxia inh; calls as there; growth inhibition, %; measured here: M. tuberculosis growth (absorbance);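 0% = vehicle and 100% = reference antibiotic; read after six days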
The depositor's hits bear a star; ? = inconclusive; . = not tested or not shown. Random draw from the library, and some 4% of all compounds hit somewhere here.

1. Cc1ccc(C(=O)N/C(=C\c2cccs2)C(=O)NCc2cccnc2)cc1
2. Cc1nnc(NC(=O)CSc2nnc(CC(=O)Nc3ccccc3Cl)n2C)s1
3. CCOC(=O)c1ccc(NC(=O)CN2C(=O)CCC2=O)cc1
4. Cc1nn(Cc2ccc(Cl)cc2)c2sc(C(=O)O)cc12
5. CCC1CCCCN1CCCNC(=O)C1CCN(c2nnc(-n3cccc3)s2)CC1 (configuration not stated)
6. CCOC(=O)CN(C(=O)CSc1nnc(CNc2ccc(C)cc2C)o1)c1ccccc1
assay / entry	1	2	3	4	5	6
Autofluor counter	10525	3153	4133	4700	6020	21560*
PrP UTR inh	-22	-3	-23	-41	-1	-37
BJeLR lethal	-8	-1	.	10	-1	-4
Sa ugtP lethal	4	8	0	1	1	-6
Sa RN4220 lethal	2.5	8.0	2.0	6.2	-0.5	0.6
Mtb hypoxia inh	-6	9	.	13	9	5
Mtb hypoxia inh growth	-9	3	.	1	0	14

7. CCN(CC)S(=O)(=O)c1ccc(C(=O)Oc2ccc3c(c2)OCO3)cc1
8. O=C(O)c1ccccc1C(=O)NC1=NN(c2ccccc2)CC1
9. COc1ccc(N(Cc2cc3ccccc3[nH]c2=O)S(C)(=O)=O)cc1
10. C/C(=N/NC(=O)Cc1c(C)[nH][nH]c1=O)c1ccc(O)cc1
11. N#Cc1cccc(NC(=O)CNc2cccc(S(=O)(=O)N3CCCC3)c2)c1
12. COc1cc2c(C(=O)N3CCN(c4ccccc4F)CC3)cn(C)c(=O)c2cc1OC
assay / entry	7	8	9	10	11	12
Autofluor counter	3299	3863	6388	1937	5445	4518
PrP UTR inh	-15	-17	-16	-22	-8	-29
BJeLR lethal	3	0	-18	2	-5	6
Sa ugtP lethal	13	3	-3	.	-1	.
Sa RN4220 lethal	5.5	2.1	3.5	.	0.8	.
Mtb hypoxia inh	3	4	-2	.	-7	.
Mtb hypoxia inh growth	6	-5	0	.	4	.

13. COc1ccc(CNC(=O)CSc2ccc(Br)cc2)cc1OC
14. CCOCCCNc1ccc(N2C(=O)CCCC2=O)cc1[N+](=O)[O-]
15. O=C(NC1CCCCCC1)c1nc2ncccn2n1
16. CC1=C(C(=O)Nc2ccccc2)C(c2ccc3c(c2)OCO3)C2=C(CCCC2=O)N1 (configuration not stated)
17. Cc1ccc(C)n1-c1cccc(NC(=O)c2ccccc2)c1
18. CCCCN(C(C)=O)C1CC(=O)N(c2ccc(OCCC)cc2)C1=O (configuration not stated)
assay / entry	13	14	15	16	17	18
Autofluor counter	1931	3328	3351	2951	11229	3478
PrP UTR inh	-1	.	-15	-22	-28	-27
BJeLR lethal	-10	-10	-2	1	-7	1
Sa ugtP lethal	10	-2	-2	5	0	14
Sa RN4220 lethal	5.0	1.5	-16	2.0	5.9	2.3
Mtb hypoxia inh	3	11	1	.	-1	-7
Mtb hypoxia inh growth	0	-3	4	.	14	-2

19. CCOC(=O)COc1ccc2ccccc2c1/C=C/[N+](=O)[O-]
20. CCCC(C(=O)NCCO)=C1c2ccccc2C(=O)N1c1ccccc1
21. CC1CN(C(C)C)C(=S)NC1=O (configuration not stated)
22. COC(=O)C(C(=O)Nc1ccccc1C)C1CCCC1 (configuration not stated)
23. CC1CC(C)CN(C(=O)C2CCC(CNc3c(N4CCCCC4)c(=O)c3=O)CC2)C1 (configuration not stated)
24. CC(C)(C)OC(=O)[C@H](Cc1ccccc1)NC(=O)c1[nH]cnc1C(=O)N[C@@H](Cc1ccccc1)C(=O)OCc1ccccc1
assay / entry	19	20	21	22	23	24
Autofluor counter	2441	.	3728	4061	6324	3683
PrP UTR inh	-17	.	-3	-13	-17	-22
BJeLR lethal	16	.	.	-9	9	6
Sa ugtP lethal	87*	4	3	10	1	.
Sa RN4220 lethal	81	5.0	6.5	1.1	2.4	.
Mtb hypoxia inh	10	2	16	25	.	.
Mtb hypoxia inh growth	13	0	8	7	.	.

25. O=C(COC(=O)/C=C/c1c(F)cccc1Cl)NCC1CCCO1 (configuration not stated)
26. CCCCC(CN(N=O)C(Cc1ccccc1)CN(C)N=O)N(CCc1ccccc1)N=O (configuration not stated)
27. CSc1ccccc1C(=O)NC1CCSc2ccccc21 (configuration not stated)
28. Cc1ccc(C)c(N2CCN(S(=O)(=O)c3ccc4c(c3)OCCO4)CC2)c1
29. CC(=O)Nc1ccc(-c2nnc(SCC(=O)NCc3ccco3)n2C)cc1
30. CC(C)NC(=O)c1cc(-c2ccco2)on1
assay / entry	25	26	27	28	29	30
Autofluor counter	?	.	4074	3204	3848	10969
PrP UTR inh	-22	.	3	-17	-16	-29
BJeLR lethal	.	.	0	7	1	-4
Sa ugtP lethal	8	7	2	45	1	1
Sa RN4220 lethal	3.9	6.4	15	3.4	7.1	-1.5
Mtb hypoxia inh	-1	4	11	11	7	2
Mtb hypoxia inh growth	-3	4	-2	6	15	9

31. CC1(C)Cc2c(C#N)c(SCCC#N)nc(N3CCOCC3)c2CO1
32. Cc1ccc(CNS(=O)(=O)c2ccc3c(c2)C(C)(C)C(=O)N3C)cc1
33. O=C(COC(=O)c1oc2ccccc2c1COc1ccccc1)NCCN1C(=O)CSC1=O
34. CC(=NCCCN1CCOCC1)c1c(O)n(-c2ccccc2C)c(=O)[nH]c1=O
35. CC1(C)CC1C(=O)NC(=CCCCCSCC(N)C(=O)O)C(=O)O (configuration not stated)
36. CCOC(=O)C1=NOC2C3CC(C12)C1C(=O)N(CCc2ccc(OC)c(OC)c2)C(=O)C31 (configuration not stated)
assay / entry	31	32	33	34	35	36
Autofluor counter	4548	6055	2695	5638	.	4073
PrP UTR inh	-14	-28	0	-18	.	-23
BJeLR lethal	2	-6	15	2	.	12
Sa ugtP lethal	-6	4	-1	-2	3	7
Sa RN4220 lethal	-1.7	6.9	9.5	0.7	8.0	1.6
Mtb hypoxia inh	17	.	15	-5	4	-1
Mtb hypoxia inh growth	7	.	9	9	1	-2

37. O=C(O)c1ccccc1N=Nc1ccc(O)cc1
38. O=C(Cn1cc(SCc2ccc(F)cc2)c2ccccc21)N1CCOCC1
39. CC(C)CC(=O)NC(=S)Nc1ccc(N2CCN(C(=O)c3cccs3)CC2)cc1
40. COc1ccc(C(=O)Nc2ccc(NC(=O)c3ccccc3)cc2)cc1S(=O)(=O)N1CCOCC1
41. CN(C)S(=O)(=O)c1ccc(Cl)c(NC(=O)C2CCN(S(=O)(=O)c3cccs3)CC2)c1
42. O=C(Nc1cc(Cl)ccc1N1CCOCC1)c1cc2ccccc2o1
assay / entry	37	38	39	40	41	42
Autofluor counter	5533	9251	3521	3638	3045	5636
PrP UTR inh	-14	-18	-4	-7	2	-6
BJeLR lethal	0	-11	-5	3	.	-4
Sa ugtP lethal	.	2	96*	-3	15	-2
Sa RN4220 lethal	.	4.0	9.1	3.4	7.9	-2.4
Mtb hypoxia inh	.	2	.	9	5	-3
Mtb hypoxia inh growth	.	0	.	4	1	-3

43. COc1cccc(NC(=O)CNC(=O)c2ccc(OC)c(OC)c2)c1
44. COc1ccccc1Nc1cc(C(=O)N2CCc3ccccc3C2)c2ccccc2n1
45. COc1ccc(C2=NS(=O)(=O)N(C)C(C(=O)N3CCOCC3)=C2)cc1OC
46. COCCn1c(C)c(C)c2c(NCCc3ccccc3)ncnc21
47. O=C(Nc1ccccc1C(=O)N1CCOCC1)c1cc2ccccc2o1
48. CC1(C)CC(=O)CC(=Nc2ccc3[nH]c(=O)[nH]c3c2)C1
assay / entry	43	44	45	46	47	48
Autofluor counter	4182	.	5562	3759	3294	10471
PrP UTR inh	-1	.	-17	43	-12	-10
BJeLR lethal	-8	-13	2	3	-10	8
Sa ugtP lethal	-7	16	5	4	7	-4
Sa RN4220 lethal	5.4	-7.8	4.6	4.1	4.9	1.6
Mtb hypoxia inh	-8	6	3	17	0	9
Mtb hypoxia inh growth	-8	1	0	19	-1	5

49. O=C(CCc1ccccc1)N=C1SC2CS(=O)(=O)CC2N1Cc1ccccc1 (configuration not stated)
50. CCn1cc(/C=C(\NC(=O)c2ccc(OC)cc2)C(=O)N2CCN(C)CC2)c2ccccc21
51. CN(C)Cc1nc2c(c(=O)[nH]1)C(C)(C)Cc1ccccc1-2
52. Cc1cc(=O)oc2c3c(cc(OCC(=O)NCc4ccccn4)c12)OC(C)(C)CC3
53. O=C(Nc1cc(C(F)(F)F)ccc1N1CCOCC1)c1c(F)c(F)c(F)c(F)c1F
54. COc1c2ccc(C(=O)NCCCCc3ccccc3)cc2nn1C
55. COc1cc(/C=C2\SC(=S)N(N3CCOCC3)C2=O)ccc1O
56. CC(C)CC(=O)N1CC(=O)Nc2ccc(F)cc2C1c1ccccc1 (configuration not stated)
57. CCOC(=O)COc1cccc2c(=O)n(CC(=O)NCCc3ccccc3)ccc12
assay / entry	49	50	51	52	53	54	55	56	57
Autofluor counter	4033	5466	2886	5680	3307	3614	3219	3108	5263
PrP UTR inh	7	-7	-12	-34	6	-18	-13	-8	-18
BJeLR lethal	8	-4	-10	-6	-1	10	5	-6	-4
Sa ugtP lethal	-6	3	1	-5	8	0	.	10	-3
Sa RN4220 lethal	-2.0	0.8	1.0	5.3	4.3	1.6	.	1.1	3.2
Mtb hypoxia inh	6	3	-1	.	4	8	.	12	2
Mtb hypoxia inh growth	3	9	4	.	8	11	.	3	5

In the list so far, eleven contain an aryl methoxy group:
9. COc1ccc(N(Cc2cc3ccccc3[nH]c2=O)S(C)(=O)=O)cc1
12. COc1cc2c(C(=O)N3CCN(c4ccccc4F)CC3)cn(C)c(=O)c2cc1OC
13. COc1ccc(CNC(=O)CSc2ccc(Br)cc2)cc1OC
36. CCOC(=O)C1=NOC2C3CC(C12)C1C(=O)N(CCc2ccc(OC)c(OC)c2)C(=O)C31 (configuration not stated)
40. COc1ccc(C(=O)Nc2ccc(NC(=O)c3ccccc3)cc2)cc1S(=O)(=O)N1CCOCC1
43. COc1cccc(NC(=O)CNC(=O)c2ccc(OC)c(OC)c2)c1
44. COc1ccccc1Nc1cc(C(=O)N2CCc3ccccc3C2)c2ccccc2n1
45. COc1ccc(C2=NS(=O)(=O)N(C)C(C(=O)N3CCOCC3)=C2)cc1OC
assay / entry	9	12	13	36	40	43	44	45
Autofluor counter	6388	4518	1931	4073	3638	4182	.	5562
PrP UTR inh	-16	-29	-1	-23	-7	-1	.	-17
BJeLR lethal	-18	6	-10	12	3	-8	-13	2
Sa ugtP lethal	-3	.	10	7	-3	-7	16	5
Sa RN4220 lethal	3.5	.	5.0	1.6	3.4	5.4	-7.8	4.6
Mtb hypoxia inh	-2	.	3	-1	9	-8	6	3
Mtb hypoxia inh growth	0	.	0	-2	4	-8	1	0

50. CCn1cc(/C=C(\NC(=O)c2ccc(OC)cc2)C(=O)N2CCN(C)CC2)c2ccccc21
54. COc1c2ccc(C(=O)NCCCCc3ccccc3)cc2nn1C
55. COc1cc(/C=C2\SC(=S)N(N3CCOCC3)C2=O)ccc1O
assay / entry	50	54	55
Autofluor counter	5466	3614	3219
PrP UTR inh	-7	-18	-13
BJeLR lethal	-4	10	5
Sa ugtP lethal	3	0	.
Sa RN4220 lethal	0.8	1.6	.
Mtb hypoxia inh	3	8	.
Mtb hypoxia inh growth	9	11	.

Screening data: PubChem, several laboratories
